Compound activity from PubChem BioAssay.
Ecoli growth: inhibitors of Escherichia coli growth; OD600, 23 h; active compounds read low; OD600 absorbance (no concentration beside the values); 330,000 compounds, 0.21% hits; AID 1053175;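 active = OD600 absorbance below the run mean of sample wells minus 3.6 SD, in any replicate, cut at about 0.56 in these data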;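 note: stock transfer was 300 nL into about 60 µL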
HNF4A DNA FP: change in binding of human HNF4 alpha to DNA; P41235; HNF4a-FITC DNA binding, fluorescence polarization, 1 h; activity change, % at 10 µM; 360,000 compounds, 0.3% hits; AID 1224865; in the data active = activity change above about 30%, passing the limit was not always enough;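 note: controls were the assay level and a saturating level of protein; the project sought stronger binding though the title names inhibitors; some compounds called inactive have numbers as strong as hits; positive values seem to mean higher polarization but the record does not say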
Target sequence (P41235 whole entry, looked up): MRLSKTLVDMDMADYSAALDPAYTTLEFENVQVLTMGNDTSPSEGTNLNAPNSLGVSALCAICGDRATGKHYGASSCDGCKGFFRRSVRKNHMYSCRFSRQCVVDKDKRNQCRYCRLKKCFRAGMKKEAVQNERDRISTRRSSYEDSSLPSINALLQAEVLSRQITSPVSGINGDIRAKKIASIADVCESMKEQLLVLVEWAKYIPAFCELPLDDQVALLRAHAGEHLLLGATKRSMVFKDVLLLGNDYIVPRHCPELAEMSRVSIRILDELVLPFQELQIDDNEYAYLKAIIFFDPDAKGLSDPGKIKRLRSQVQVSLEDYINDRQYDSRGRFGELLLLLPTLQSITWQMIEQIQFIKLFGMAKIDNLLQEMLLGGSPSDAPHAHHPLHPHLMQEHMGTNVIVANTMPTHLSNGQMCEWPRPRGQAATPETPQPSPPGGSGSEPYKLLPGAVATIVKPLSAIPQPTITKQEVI
FGF22 binding: FGF22 (human) thermal shift binding. 340,000 compounds, 1.5% hits. recombinant FGF22 thermal shift, SYPRO orange fluorescence; percent of sucrose octasulfate shift, DMSO zero. calls only at 9.99 µM;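 active = melting point raised past a set limit in the mean and every replicate; inconclusive = no clear call; three in four hits are not shown here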
Vif TR-FRET: inhibitors of Vif binding to APOBEC3G peptide, primary screen, biochemical, TR-FRET, GST-Vif 1-94, biotin-A3G peptide, dose response retest (AID 1117319) | 260,000 compounds, 0.57% hits | inhibition, %, or IC50 in µM where a hit was titrated | TR-FRET GST-Vif / biotin-A3G peptide binding; higher % means a stronger effect; test concentration not given here; strong numbers were not always called active;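 active = above the screen mean plus three standard deviations and confirmed in dose response; inconclusive = results disagree or hit not tested in dose response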;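 note: Vif residues 1-94 fused to GST binding biotinylated APOBEC3G peptide 110-148; 0% = full assay without inhibitor and 100% = GST in place of GST-Vif; retest series ran down from 100 µM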
RanGTP-Impb inh: inhibitors of RanGTP-importin-beta interaction, primary screen, biochemical, FRET, CFP-Ran, YFP-importin-beta, homogeneous. cell-free CFP-Ran/YFP-importin-beta FRET ratio. inhibition, % (no concentration beside the values). 300,000 compounds, 1.1% hits. AID 2216;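 active = most replicates above 15%; inconclusive = exactly half above 15%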;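 note: 0% = DMSO wells and 100% = Ran loaded with GDP instead of GTP; wells of about 40 µL received 100 nL stock; the first replicate is given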
AF4-AF9 inh: MLL-AF4/AF9 protein interaction inhibition; P42568; AlphaScreen, biotin-AF4 peptide binding to FLAG-AF9; inhibition, % at 10 µM; 350,000 compounds, 0.47% hits; AID 651704;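 active = every replicate reaching a set inhibition limit, whatever the replicate mean, cut at about 25% in these data; inconclusive = mean inhibition reaches that limit but some replicates miss it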;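 note: 0% = plate neutral control median and 100% = total signal loss; the record names both 10 and 1 µM as test concentration; the first replicate is given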
Target sequence (P42568 whole entry, looked up): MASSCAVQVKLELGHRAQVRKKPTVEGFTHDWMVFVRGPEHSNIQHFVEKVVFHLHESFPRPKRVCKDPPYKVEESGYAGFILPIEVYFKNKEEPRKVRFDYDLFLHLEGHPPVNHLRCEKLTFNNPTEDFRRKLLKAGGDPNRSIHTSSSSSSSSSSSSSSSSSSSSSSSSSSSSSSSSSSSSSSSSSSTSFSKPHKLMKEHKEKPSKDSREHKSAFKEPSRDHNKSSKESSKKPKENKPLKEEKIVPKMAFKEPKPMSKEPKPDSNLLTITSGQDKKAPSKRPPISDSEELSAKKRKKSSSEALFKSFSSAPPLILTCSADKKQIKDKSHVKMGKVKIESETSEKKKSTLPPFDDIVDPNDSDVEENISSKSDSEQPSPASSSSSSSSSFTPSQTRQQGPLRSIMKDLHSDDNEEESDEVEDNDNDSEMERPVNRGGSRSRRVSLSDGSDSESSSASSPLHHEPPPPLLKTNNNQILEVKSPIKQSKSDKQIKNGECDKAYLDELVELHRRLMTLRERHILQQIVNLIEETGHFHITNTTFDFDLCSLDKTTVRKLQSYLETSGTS
UCH37 DUB inh: blocks the human deubiquitinase UCH37; Q9Y5K5; purified proteasome/UCH37, Ub-AMC cleavage fluorescence; inhibition, % (concentration not given with the values); 330,000 compounds, 0.33% hits; AID 588478;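 active = mean of two replicates above 20%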;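 note: 0% = compound-free wells with enzyme and 100% = wells lacking proteasome; stock transfer was 100 nL into about 20 µL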
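Material: human UCH37 enzyme supplied as purified proteasome complex / Amount: 0.15 nM proteasome as dispensed / Buffer or medium: pH 7.4 Tris-HCl (50 mM) with ovalbumin, ATP-MgCl2, DTT / Times: preincubation 30 min, reaction 25 min, room temperature / Technique: AMC fluorescence from Ub-AMC cleavage, excitation 355 nm, emission 460 nm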
Starred values were filed as active, the others as inactive; & = joins results of further samples.

How did Cc1cc(NC(=O)CSc2nc(C(C)C)nc3c2c(=O)n(C)c(=O)n3C)no1 do in these assays?
Ecoli growth: 0.77; HNF4A DNA FP: 0.8; FGF22 binding: inactive; Vif TR-FRET: -2%; RanGTP-Impb inh: -0.1; AF4-AF9 inh: -15; UCH37 DUB inh: 3.4

What do the screens show for `Cc1cc(C)n2nc(SCC(=O)NCc3ccco3)nc2n1`?
Ecoli growth: 0.63; HNF4A DNA FP: 1.8; Vif TR-FRET: 5%; RanGTP-Impb inh: 2.6; UCH37 DUB inh: 0.5

How did Cc1ccc(/C=N/NC(=O)CCCOc2ccc(Cl)cc2Cl)cc1[N+](=O)[O-] do in these assays?
HNF4A DNA FP: 0.6; Vif TR-FRET: 0%; RanGTP-Impb inh: 4.6

Results for CCOC(=O)c1ccc(S(=O)(=O)N2CCC(C(=O)NCC3CCCCC3)CC2)cc1 ?
Ecoli growth: 0.71; HNF4A DNA FP: -2.1; FGF22 binding: inactive; Vif TR-FRET: 0%; AF4-AF9 inh: -1.8; UCH37 DUB inh: -0.3

How did O=C(Nc1ccccc1)C(=O)c1c[nH]c2ccccc12 do in these assays?
Ecoli growth: 0.62; HNF4A DNA FP: -1.7; FGF22 binding: inactive; RanGTP-Impb inh: -1.1; AF4-AF9 inh: -3.3; UCH37 DUB inh: 1.6

How did CC(C)(C)OC(=O)NCCCC[C@H](NC(=O)c1nc[nH]c1C(=O)N1CCc2ccccc2C1)C(=O)OC(C)(C)C do in these assays?
HNF4A DNA FP: 15; FGF22 binding: inactive; Vif TR-FRET: 7%; RanGTP-Impb inh: -4.9; AF4-AF9 inh: 2.3; UCH37 DUB inh: 5.0

Results for CCOC(=O)C(C)Sc1nnc(NC(=O)c2ccc(C)c([N+](=O)[O-])c2)s1 (centres undefined) ?
Ecoli growth: 0.64; HNF4A DNA FP: -3.9; UCH37 DUB inh: 9.6

Results for Cc1cccc(N2C(=O)C3C4CC(=O)C(c5ccccc54)C3C2=O)c1C (centres undefined) ?
Ecoli growth: 0.7; HNF4A DNA FP: -3.9; Vif TR-FRET: 10%; RanGTP-Impb inh: inconclusive; AF4-AF9 inh: -3.4; UCH37 DUB inh: -0.1

What do the screens show for `CCOC1=C2[C@@H](CN(S(=O)(=O)c3ccc(C)cc3)[C@H]2c2cccc3ccccc23)[C@H]2C(=O)N(Cc3ccccc3)C(=O)[C@H]2C1`?
HNF4A DNA FP: -4.6; FGF22 binding: inactive; AF4-AF9 inh: -0.8

Results for COCCN(C(=O)COC(=O)c1ccc(-c2ccccc2)cc1)c1c(N)n(Cc2ccccc2)c(=O)[nH]c1=O ?
Ecoli growth: 0.71; HNF4A DNA FP: 1.6; FGF22 binding: inactive; AF4-AF9 inh: -0.7; UCH37 DUB inh: -0.3

Results for N#CC1(Nc2ccc(C(=O)O)cc2)CCCC1 ?
Ecoli growth: 0.69; HNF4A DNA FP: -2.3; FGF22 binding: inactive; Vif TR-FRET: 10%; AF4-AF9 inh: -3.6; UCH37 DUB inh: 3.8

Results for CC(C)CCNC(=O)Cc1csc(-c2ccccc2)n1 ?
Ecoli growth: 0.71; HNF4A DNA FP: 1.1; FGF22 binding: inactive; Vif TR-FRET: 5%; RanGTP-Impb inh: -0.9; AF4-AF9 inh: 1.5; UCH37 DUB inh: 4.9

How did COc1cc(C(=O)NC(CCSC)C(=O)Nc2ccc(N3CCOCC3)cc2)cc(OC)c1OC (centres undefined) do in these assays?
HNF4A DNA FP: 3.4; FGF22 binding: inactive; Vif TR-FRET: 5%; AF4-AF9 inh: -3.7

What do the screens show for `CCN(CCCNC(=O)C1CCC(=O)N1Cc1ccccc1Cl)c1cccc(C)c1` (centres undefined)?
Ecoli growth: 0.64; HNF4A DNA FP: -0.1; Vif TR-FRET: 17%; RanGTP-Impb inh: -8.5; UCH37 DUB inh: 4.0

What do the screens show for `CN(CC(=O)Nc1cc(S(=O)(=O)N2CCCCCC2)ccc1Cl)Cc1ccc2c(c1)OCO2`?
Ecoli growth: 0.75; HNF4A DNA FP: 2.0; FGF22 binding: inactive; Vif TR-FRET: 4%; AF4-AF9 inh: -0.3; UCH37 DUB inh: 0.8

Results for CC(=O)Nc1ccc2c(c1)OCCO2 ?
Ecoli growth: 0.77; HNF4A DNA FP: -3.9; Vif TR-FRET: -3%; RanGTP-Impb inh: 0.7; UCH37 DUB inh: 0.0

What do the screens show for `O=C(Nc1nccs1)c1sc2ccccc2c1Cl`?
Ecoli growth: 0.69; HNF4A DNA FP: 5.4; Vif TR-FRET: -28%; RanGTP-Impb inh: -3.8; UCH37 DUB inh: 1.6

Results for COc1ccc(-c2noc(-c3cccc(Cl)c3)n2)cc1OC ?
Ecoli growth: 0.64; HNF4A DNA FP: 0.6; Vif TR-FRET: 9%; RanGTP-Impb inh: 3.8; UCH37 DUB inh: 2.2

What do the screens show for `CCOc1ccc(C(=O)C(c2ccccc2)N2CCOCC2)cc1` (centres undefined)?
Ecoli growth: 0.67; HNF4A DNA FP: 1.9; Vif TR-FRET: 16%; RanGTP-Impb inh: 1.0; UCH37 DUB inh: 3.8

What do the screens show for `O=C(NCc1cccnc1)Nc1cccc(NC(=O)NCc2cccnc2)c1`?
Ecoli growth: 0.67; HNF4A DNA FP: 2.2; Vif TR-FRET: -8%; RanGTP-Impb inh: -0.5; UCH37 DUB inh: 1.8

Reprinted from the part before: 3 entries, then new ones.
Results for COc1ccc(-c2noc(-c3cccc(Cl)c3)n2)cc1OC ?
Ecoli growth: 0.64; HNF4A DNA FP: 0.6; Vif TR-FRET: 9%; RanGTP-Impb inh: 3.8; UCH37 DUB inh: 2.2

What do the screens show for `CCOc1ccc(C(=O)C(c2ccccc2)N2CCOCC2)cc1` (centres undefined)?
Ecoli growth: 0.67; HNF4A DNA FP: 1.9; Vif TR-FRET: 16%; RanGTP-Impb inh: 1.0; UCH37 DUB inh: 3.8

What do the screens show for `O=C(NCc1cccnc1)Nc1cccc(NC(=O)NCc2cccnc2)c1`?
Ecoli growth: 0.67; HNF4A DNA FP: 2.2; Vif TR-FRET: -8%; RanGTP-Impb inh: -0.5; UCH37 DUB inh: 1.8

What do the screens show for `CCOC(=O)N1CCC(Nc2c(NCCN3CCN(Cc4ccccc4)CC3)c(=O)c2=O)CC1`?
Ecoli growth: 0.75; HNF4A DNA FP: 1.6; FGF22 binding: inactive; Vif TR-FRET: 31%&-3%; RanGTP-Impb inh: 5.2; AF4-AF9 inh: 8.0; UCH37 DUB inh: 5.3

Results for CCOC(=O)c1cccc(NC(=O)N2CCOCC2)c1 ?
Ecoli growth: 0.72; HNF4A DNA FP: 6.4; FGF22 binding: inactive; RanGTP-Impb inh: -4.4; AF4-AF9 inh: -15; UCH37 DUB inh: 2.7

Results for CC(=O)Oc1ccc(C(=O)Nc2cccnc2)cc1 ?
Ecoli growth: 0.62; HNF4A DNA FP: -0.1; FGF22 binding: inactive; Vif TR-FRET: -1%; RanGTP-Impb inh: -0.6; AF4-AF9 inh: 3.5; UCH37 DUB inh: 6.9

What do the screens show for `CCN1C(=O)CC(N2CCC(c3nc4ccccc4[nH]3)CC2)C1=O` (centres undefined)?
Ecoli growth: 0.69; HNF4A DNA FP: -2.6; FGF22 binding: inactive; RanGTP-Impb inh: -0.7; AF4-AF9 inh: -4.7; UCH37 DUB inh: 4.6

What do the screens show for `COCCNC(=O)CN1C(=O)NC(c2ccccc2)(c2ccccc2)C1=O`?
Ecoli growth: 0.64; HNF4A DNA FP: -1.2; FGF22 binding: inactive; RanGTP-Impb inh: 3.6; AF4-AF9 inh: -2.4; UCH37 DUB inh: 2.7

Results for O=C(c1ccccc1C(=O)N1CCN(c2ccccc2)CC1)N1CCN(c2ccccc2)CC1 ?
Ecoli growth: 0.73; HNF4A DNA FP: -7.0; Vif TR-FRET: 4%; RanGTP-Impb inh: 1.8; UCH37 DUB inh: 5.8

How did O=C(c1ccc(=O)n(Cc2ccccc2)n1)N1CCN(C/C=C/c2ccccc2)CC1 do in these assays?
Ecoli growth: 0.67; HNF4A DNA FP: -0.6; Vif TR-FRET: -9%; RanGTP-Impb inh: -1.2; UCH37 DUB inh: 1.3

How did O=C(O)c1ccccc1NS(=O)(=O)c1ccc2c(c1)OCCO2 do in these assays?
Ecoli growth: 0.68; HNF4A DNA FP: 0.3; RanGTP-Impb inh: 1.1; AF4-AF9 inh: -1.5; UCH37 DUB inh: 4.3

Results for Cc1ccc(Cl)c(OCC(=O)NCc2ccco2)c1 ?
Ecoli growth: 0.65; HNF4A DNA FP: -1.8; Vif TR-FRET: -4%; RanGTP-Impb inh: -6.2; UCH37 DUB inh: 4.1

Results for CC1CCN(C(=O)CN2C(=O)NC(C)(c3ccc4ccccc4c3)C2=O)CC1 (centres undefined) ?
Ecoli growth: 0.72; HNF4A DNA FP: -0.7; FGF22 binding: inactive; AF4-AF9 inh: -2.0; UCH37 DUB inh: 0.9

How did Cn1c(=O)c(-c2ccccc2N)nc2ccccc21 do in these assays?
Ecoli growth: 0.68; HNF4A DNA FP: -4.9; Vif TR-FRET: 1%; RanGTP-Impb inh: -3.0; UCH37 DUB inh: 13

What do the screens show for `Cc1ccc(S(=O)(=O)N2[C@@H](c3ccc(C(C)(C)C)cc3)C(C(=O)O)=CC[C@H]2c2ccc(C(C)C)cc2)cc1`?
Ecoli growth: 0.64; HNF4A DNA FP: -39; FGF22 binding: inactive; Vif TR-FRET: 3%; AF4-AF9 inh: 2.3; UCH37 DUB inh: 11

Results for COc1ccc(C(=O)O)cc1S(=O)(=O)Nc1ccccc1Cc1ccccc1 ?
Ecoli growth: 0.7; HNF4A DNA FP: 3.0; FGF22 binding: inactive; RanGTP-Impb inh: -1.8; AF4-AF9 inh: -0.9; UCH37 DUB inh: 4.6

Results for Cc1cccc(C(=O)Nc2ccc(C(=O)c3ccncc3)cc2)c1 ?
HNF4A DNA FP: -4.3; FGF22 binding: inactive; AF4-AF9 inh: -0.2

What do the screens show for `CCN(CC(=O)NCc1ccc(F)cc1)C(=O)/C=C/c1ccc(OC)cc1`?
Ecoli growth: 0.69; HNF4A DNA FP: 1.8; FGF22 binding: inactive; RanGTP-Impb inh: -1.6; AF4-AF9 inh: -6.5; UCH37 DUB inh: 4.5

Results for O=C(CSc1nnc(Nc2ccccc2F)s1)NC1CC1 ?
Ecoli growth: 0.69; HNF4A DNA FP: 5.5; FGF22 binding: inactive; AF4-AF9 inh: -2.4; UCH37 DUB inh: -0.4

How did Cc1ccc(-c2nc(CS(=O)(=O)CC(=O)NCCCN(Cc3ccccc3)C(C)C)c(C)o2)cc1 do in these assays?
Ecoli growth: 0.67; HNF4A DNA FP: -0.7; FGF22 binding: inactive; RanGTP-Impb inh: 1.9; AF4-AF9 inh: 1.7; UCH37 DUB inh: 5.1

Results for O=C(O)CN1C(=O)/C(=C\c2ccccc2OCc2ccc(F)cc2)SC1=S ?
Ecoli growth: 0.62; HNF4A DNA FP: 2.7; Vif TR-FRET: -6%; RanGTP-Impb inh: -1.9; AF4-AF9 inh: -0.3; UCH37 DUB inh: 9.0

What do the screens show for `Cc1ccc(C)c(N2CCN(C(=O)CCNC(=O)Cn3ccc4ccccc4c3=O)CC2)c1`?
Ecoli growth: 0.7; HNF4A DNA FP: -2.8; Vif TR-FRET: 2%; RanGTP-Impb inh: -0.9; UCH37 DUB inh: 1.2

What do the screens show for `O=C(c1ccc2c(c1)OCCO2)N1CCN(c2ccc([N+](=O)[O-])cc2)CC1`?
Ecoli growth: 0.69; Vif TR-FRET: inconclusive; RanGTP-Impb inh: -1.9; UCH37 DUB inh: 4.0

A portion of the library; rates above refer to the full screens.
